Screens deposited in PubChem BioAssay by ICCB-Longwood Screening Facility, Harvard Medical School.
Sa helicase inh: inhibitors of S. aureus replicative helicase, primary screen, biochemical, fluorescence unwinding readout. 120,000 tested, 0.05% active. inhibition, %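 (tested at about 80 µM)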. replicative DNA helicase (DnaC/DnaB), Staphylococcus aureus. purified S. aureus helicase, fluorescence unwinding assay; about half of the hits fall short of the stated cut;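 active = both duplicates at 50% or more, or one of them with a favoured structure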;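 note: 0% = mean of negative control wells and 100% = mean of positive control wells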
MgrA-DNA mod: S. aureus MgrA activity modulators, primary screen, biochemical, S. aureus Newman, fluorescence polarization; MgrA-DNA binding; 84,000 tested, 0.13% active; inhibition, %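 (about 10 µg/mL by stock and volumes)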; AID 602314, 2012;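 active = above 50% in either of two replicates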;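 note: 0% = protein plus DNA without compound and 100% = DNA alone without protein; higher means less MgrA bound to DNA so lower polarization; one replicate is shown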
* hit, by the source's call; · = no result given; & = joins results of further samples.

SMILES	Sa helicase inh	MgrA-DNA mod
Cc1cccc(C(=O)NCCN2C(=O)S/C(=C\c3ccc(F)cc3)C2=O)c1C	2	-2.6
COc1ccc(S(=O)(=O)NCCOc2ccccc2)cc1-n1cnnn1	5	-1.5
CCN(CC)C(=O)c1sc2[nH]c(=O)n(-c3ccccc3)c(=O)c2c1C	10	·
O=C(NCCN1CCOCC1)c1cc(-c2ccco2)on1	7	·
CCC(C)c1ccccc1NC(=O)C1CSC2(C)CCC(=O)N12 (stereo unspecified)	-9	·
CCn1c(SCC(=O)O)nc2cc(Cl)c(Cl)cc21	·	-1.8
CS(=O)(=O)c1ccc(Cl)c(C(=O)O)c1	-23	-0.8
CCOc1ccccc1CN1C(=O)c2ccccc2C1C(=O)NCCCN1C(C)CCCC1C (stereo unspecified)	8	0.8
Cc1ccsc1C(=O)Nc1sc2c(c1C#N)CCCC2	-6	·
COc1ccc(/C=N\N2CCN(c3ccccc3)CC2)cc1	15	·
NC(=NCc1ccc(Cl)cc1Cl)NC(=O)c1nc(Cl)c(N)nc1N	·	4.0
N=C1/C(=C\c2cccn2-c2ccc3ccccc3c2)C(=O)N=C2SC=NN12	13	4.5
CC1CN(C)C(C)CC1NCCc1ccccc1 (stereo unspecified)	10	-0.8
CCOc1ccc(C(=O)/C=C2/NCCNC2=O)cc1	12	0.9
COc1ccccc1C1CC(c2c(-c3ccccc3)c3cc(Cl)ccc3[nH]c2=O)=NN1C(=O)CCC(=O)O (stereo unspecified)	·	2.2

Copied from the list:
COc1ccc(/C=N\N2CCN(c3ccccc3)CC2)cc1 @ Sa helicase inh = 15
O=C(NCCN1CCOCC1)c1cc(-c2ccco2)on1 @ Sa helicase inh = 7
COc1ccc(S(=O)(=O)NCCOc2ccccc2)cc1-n1cnnn1 @ MgrA-DNA mod = -1.5

In the list so far, these contain a halogen:
SMILES	Sa helicase inh	MgrA-DNA mod
Cc1cccc(C(=O)NCCN2C(=O)S/C(=C\c3ccc(F)cc3)C2=O)c1C	2	-2.6
CCn1c(SCC(=O)O)nc2cc(Cl)c(Cl)cc21	·	-1.8
CS(=O)(=O)c1ccc(Cl)c(C(=O)O)c1	-23	-0.8
NC(=NCc1ccc(Cl)cc1Cl)NC(=O)c1nc(Cl)c(N)nc1N	·	4.0
COc1ccccc1C1CC(c2c(-c3ccccc3)c3cc(Cl)ccc3[nH]c2=O)=NN1C(=O)CCC(=O)O (stereo unspecified)	·	2.2

Remaining list, next part
SMILES	Sa helicase inh	MgrA-DNA mod
CN(CC(=O)C1=C(c2ccc(Br)cc2)C(=O)c2ccccc2C1=O)c1ccccc1	7	-2.2
CC(C)(C)S(=O)(=O)c1ccsc1	-9	5.3
COc1cc(C=Nc2cc(C)ccc2NC(C)=O)cc(OC)c1OC	·	0.1
O=C(NCC1(c2ccccc2)CCOCC1)C1COc2ccccc2O1 (stereo unspecified)	36	·
COc1ccc(C2c3c(n(C)c4ccccc34)C(=O)N2CC(=O)NCc2cccs2)cc1 (stereo unspecified)	19	·
Oc1ccccc1N=CC=Nc1ccccc1O	·	3.1
CC(C)NC(=O)C1c2ccccc2C(=O)N2CCc3ccccc3C12 (stereo unspecified)	8	·
O=C(c1ccc(S(=O)(=O)N2CCCCC2)cc1)N1CCc2ccccc2C1	16	·
O=C1CCC(=O)N1c1ccccc1Oc1ccc(Cl)cc1Cl	·	-1.9
N#CCSc1nc(N)c(C#N)c(-c2cccs2)c1C#N	3	·
CCNC(=O)c1sc(C)nc1N	-3	0.4
COc1ccc(C2CC(c3ccc(C)cc3)=NN2C(=O)CCCC(=O)O)cc1OC (stereo unspecified)	·	-2.2
Nc1c(C(=O)CSc2nnc(-c3ccc4c(c3)OCO4)o2)c(=O)[nH]c(=O)n1Cc1ccccc1	6	·
O=S(=O)(c1cccs1)N1CCCN(S(=O)(=O)c2cccs2)CC1	-23	2.1
O=C(Nc1ccc(F)c(Cl)c1)c1cccnc1Sc1cccs1	·	-1.9
COc1ccccc1N1CCN(C(=S)NC(C)(C)C)CC1	-7	·
O=C(CN1CCCN(Cc2ccc(F)cc2Cl)C1=O)NCc1cccnc1	-13	·
CN(C(=O)/C=C/c1ccccc1)C1CCS(=O)(=O)C1 (stereo unspecified)	-9	·
COc1cc(/C=C2/C(=O)NC(=O)N(c3ccccc3)C2=O)ccc1OCC(=O)O	·	0.7
N#CCSc1nc2ccccc2c(=O)n1CCn1c(SCC#N)nc2ccccc2c1=O	5	2.0
CCC1=CC(c2c(O)c3ccccc3n(C)c2=O)=NC(C)CN1 (stereo unspecified)	14	2.6
CCOc1ccc2nc(NC(=O)C(C)C)sc2c1	-11&1	-1.8&-1.0
Cc1oc(-c2cccc(Cl)c2)nc1Cn1ncn2c(cc3ccccc32)c1=O	6	·
O=C(N/C(=C/c1ccc(Cl)cc1)C(=O)N1CCOCC1)c1ccccc1	-6	·
Cc1ccc(CNC(=O)COc2ccc3c(c2)C(=O)CC2(CCCCC2)O3)cc1	4	0.6
Cc1ccc2c(c1)/C(=N/O)CC(O)(C(F)(F)F)O2 (stereo unspecified)	8	1.5
CN1C(=O)/C(=C\c2c(O)c3ccccc3n(C)c2=O)C(=O)c2ccccc21	-14	-0.2
CC(C)OC(=O)CSc1nc2ccccc2s1	2	-1.9
N#Cc1cccc(COC(=O)c2ccccc2-n2cnnn2)c1	8	·
CCc1ccc2[nH]c3sc(C)nc3c2c1	6	·

Compound profiles, from the list above.
Results for O=C(CN1CCCN(Cc2ccc(F)cc2Cl)C1=O)NCc1cccnc1 : Sa helicase inh: -13; MgrA-DNA mod: ·
Results for Cc1ccc2c(c1)/C(=N/O)CC(O)(C(F)(F)F)O2 (stereo unspecified) : Sa helicase inh: 8; MgrA-DNA mod: 1.5
Results for COc1cc(/C=C2/C(=O)NC(=O)N(c3ccccc3)C2=O)ccc1OCC(=O)O : Sa helicase inh: ·; MgrA-DNA mod: 0.7

Already shown: entries from further up.
SMILES	Sa helicase inh	MgrA-DNA mod
CN1C(=O)/C(=C\c2c(O)c3ccccc3n(C)c2=O)C(=O)c2ccccc21	-14	-0.2
CC(C)OC(=O)CSc1nc2ccccc2s1	2	-1.9

Further structures follow:
SMILES	Sa helicase inh	MgrA-DNA mod
N/C(=N\S(=O)(=O)Cc1ccccc1)Nc1nc2ccccc2o1	6	·
Cc1ccc(-n2c(=O)c3c(c4cc(C)ccc4n3C)n(CC(N)=O)c2=O)cc1	-5	-1.6
CC(C)(C)c1ccc(-c2nnc(-c3ccccc3N)o2)cc1	·	-0.2
COC(=O)c1ccc(CO/N=C(\C)c2ccc(Cl)cc2Cl)o1	29	·
CCC(=O)Oc1ccc2cc(-c3nc4ccccc4n3C)c(=O)oc2c1	18	·
COc1ccc2cc(C#N)c(N3CCN(Cc4nnnn4CCC(C)C)CC3)nc2c1	0	-2.4
Cc1ccc(OC(=O)c2ccc(Cl)cc2)c(Br)c1	·	-0.3
Cc1ccc2oc(-c3ccccc3)nc2c1	-14	·
CC(=O)NNc1ncnc2ccccc12	-3	·
CC(C)NC(=O)c1cc2cc3ccc(Cl)cc3nc2o1	11	10
CCOC(=O)CSC1=Nc2ccccc2C2=NC(CC(=O)N3CCN(c4ccccc4)CC3)C(=O)N12 (stereo unspecified)	26	·
COc1ccc(S(=O)(=O)NCc2ccc(C(=O)NCCN3CCCCCC3)cc2)cc1	12	·
Cc1ccc(N2C(=O)C3C4C=CC(CNC(=S)Nc5ccc(Br)cc5)(O4)C3C2=O)cc1 (stereo unspecified)	7	-1.8
CN1CCN(C(=O)/C(=C/c2cccs2)NC(=O)c2cccs2)CC1	2	-0.5
CC(=O)N/C(=N/c1nc(C)cc(C)n1)Nc1cc(C)cc(C)c1	5	-4.3
O=C(COC(=O)Cc1cccc2ccccc12)NCc1ccc(F)cc1	-22	2.0
NC(=O)COc1cccc(/C=C2/CC/C(=C\c3cccc(OCC(N)=O)c3)C2=O)c1	-1	2.2
COc1cccc(CNC(=O)c2ccc(CS(=O)Cc3ccc(C)cc3)o2)c1 (stereo unspecified)	23	·
O=C(Nc1cc(C(=O)N2CCOCC2)cc(C(=O)N2CCOCC2)c1)c1cc(F)c(F)cc1Cl	18	3.3
CCOC(=O)N1CCN(C(=O)/C=C2\Sc3ccccc3NC2=O)CC1	42	·
CC1=C(C(=O)OCC2CCCO2)C(c2ccccc2)NC(=O)N1 (stereo unspecified)	-3	5.0
O=C(/C=C/c1ccc(OC(F)F)cc1)OCc1ccco1	2	·
CC(C)(C)C(=O)OCOC(=O)[C@@H]1N2C(=O)[C@@H](N=CN3CCCCCC3)[C@H]2SC1(C)C	·	5.2
CN1CCN(c2ccc(CNC(=O)c3cc(F)cc4c3OCOC4)cc2)CC1	·	-1.8
FC(F)(F)c1cccc(N=Cc2cccnc2)c1	-13	·
Cc1ccc(-c2nnn(CC(=O)NN)n2)cc1Cl	19	·
CC1(C)OC(=O)C(=Cc2ccc[nH]2)C(=O)O1	·	0.4
N#Cc1ccc(C#CCOC(=O)Nc2ccc(OC(F)(F)F)cc2)cc1	·	-1.6
CC(=O)NCc1c(Cl)cccc1Cl	·	0.1
Cc1cc(C)c2nc3sc(C(=O)N4CCOCC4)c(N)c3cc2c1	-1	-0.9
O=[N+]([O-])c1ccc(-c2n[nH]c(=S)s2)o1	·	3.4
O=C(c1cc(C2CC2)on1)N1CCCC1	11	·
O=C(N1CCCC1)C12CC3CCC(CC(C3)C1)C2	·	-1.1
CCOc1ccc(C(=O)NC(C(=O)Nc2ccc(S(=O)(=O)N(C)C)cc2)C(C)C)cc1 (stereo unspecified)	-7	·
COc1cccc(NC(=O)c2ccc3c(c2)CCCC3)c1	-25	·
Cc1onc(-c2ccccc2Cl)c1C(=O)NC1Cc2ccccc2C1	·	-3.5
Cc1cc2c(=O)n(C)c(SCC(N)=O)nc2s1	8	0.1
O=c1[nH]c2ncnn2c(-c2ccc(Cl)cc2)c1-c1ccc(F)cc1	-20	-0.9
NC(=O)COC(=O)CC12CC3CC(CC(C3)C1)C2	-15	·
COc1ccc(C2C3=C(CCCC3=O)Nc3[nH]c(=O)[nH]c(=O)c32)cc1 (stereo unspecified)	18	·
Cc1ccc(Cl)cc1NC(=S)NCCO	·	-0.8
COC(=O)c1sc(SCCOC(=O)c2ccccc2Cl)c2c1CC(C)(C)CC2=O	·	1.2
CCCC1=C(C(=O)OC)C(c2ccccc2)n2c(nc3ccccc32)N1 (stereo unspecified)	11	13
CCOC(=O)C1=C(N)OC2=C(C(=O)CC(C)(C)C2)C1c1ccccc1 (stereo unspecified)	0	0.2
CC1(C)CC(=O)C=C(NNc2ccccn2)C1	·	2.5
CC(C)Cc1ccc(C(C)C(=O)Nc2nccs2)cc1 (stereo unspecified)	4	·
Nc1cc(N)nc(SCC(=O)N2CCc3ccccc32)n1	2	-0.3
CC1(C)COC(c2cccn2Cc2ccc(F)cc2Cl)=N1	25	·
CC(=O)NC(=O)c1cc2cc([N+](=O)[O-])ccc2oc1=Nc1cccc2ccccc12	·	2.0
O=C(CN1Cc2ccccc2C1=O)N1CC=C(c2ccccc2)CC1	0	·
CSCC[C@H](NC(=O)[C@H](Cc1ccccc1)NC[C@@H](NC[C@@H](N)CS)C(C)C)C(=O)O	·	-0.8
Cc1nc(C(=O)NCC(=O)c2ccccc2)c(C(F)(F)F)o1	-3	·
CC1CN(C(=O)Nc2cccc(C(F)(F)F)c2)CC(C)O1 (stereo unspecified)	-9	·
CN1CCN(C(CNC(=O)c2ccc(Cl)cc2)c2ccc3c(c2)OCO3)CC1 (stereo unspecified)	5	·
CCOC(=O)N1CCN(C(=O)c2cccc(NC3=NC4CS(=O)(=O)CC4S3)c2)CC1 (stereo unspecified)	9	·
Cc1ccc(NC(=O)c2oc3ccc(S(=O)(=O)N4CCCC4)cc3c2C)cc1C	3	1.4
CCN(CC)S(=O)(=O)c1ccc(C(=O)Nc2c3c(nn2-c2ccc(Cl)cc2)CSC3)cc1	·	1.1
C(=NCc1ccccc1)c1ccc2c(c1)OCO2	·	0.5
Cc1ccc(NC2=CC(=O)NC2)cc1	11	-1.2
CC1CCc2nc(NCCO)nc(C(F)(F)F)c2C1 (stereo unspecified)	14	-0.2

(next part)
SMILES	Sa helicase inh	MgrA-DNA mod
CCCCOC(=O)Nc1ccc(I)cc1C	2	0.2
CCOCCCn1nnc2c(=O)[nH]c(C(=O)NCc3cccc(Cl)c3)nc21	25	·
Cc1ccc(NC(=O)CN(C)C(=O)CSc2nnc(-c3ccc4c(c3)OCO4)o2)cc1	-5	·
S=C(NCC1CCCO1)N/N=C/c1ccc(Cl)cc1 (stereo unspecified)	·	-1.2
COC(=O)c1c(N2C(=O)C3CC(C)=C(C)CC3C2=O)sc(C)c1C (stereo unspecified)	-15	·
Oc1ccc(Br)cc1C1Nc2ccccc2S1 (stereo unspecified)	·	0.8
O=C1NC(=O)N(c2ccc(F)cc2)C(=O)/C1=C/c1ccc(-c2ccccc2C(=O)O)o1	·	3.2
Cn1c(=Nc2ccccc2C(=O)O)ccc2ccccc21	6	0.2
O=C(NCCN1C(=O)C2C3C=CC(C3)C2C1=O)N1CCCCC1 (stereo unspecified)	4	2.5
Cc1cc2c(nn1)CCC/C2=N/O	·	0.4
CCc1ccc(C2=CC(c3ccc(SC)cc3)n3nnnc3N2)cc1 (stereo unspecified)	1	2.0
O=C1CCCN1C(=O)CSc1nnc2sc3ccccc3n12	-9	·
CCC(C)C(NS(=O)(=O)c1ccc(Cl)c(C(=O)O)c1)C(=O)O (stereo unspecified)	-3	·
Cc1ccc(C)c(-c2nnc(NC(=O)c3ccccc3S(C)(=O)=O)o2)c1	6	·
Cc1cc(C(=O)CN2C(=O)NC3(CCCCC3C)C2=O)c(C)n1Cc1ccco1 (stereo unspecified)	14	·
C(=C\c1ccccc1)/CSc1nnc(-c2ccncc2)o1	24	·
Cc1cc(C(=O)CSc2nccn2Cc2ccccc2)c(C)n1C1CCS(=O)(=O)C1 (stereo unspecified)	7	·
COc1ccc(CCNC(=O)C(C)(C)C)cc1OC	9	-1.9

The list is partial; count on the stated rates, not on these rows.
